High-throughput results from PubChem.
YjeE inh = displaces an ADP probe from E. coli YjeE (TsaE). purified YjeE, fluorescence polarisation of a bound ADP probe. Potency, µM. 71,000 tested, 0.05% active; active = well fitted falling curve; inconclusive = weaker or top-dose-only fall, or a rising curve; inactive = flat or poorly fitted curve;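 note: top concentration of the series not given in the record; excess ADP was the control for the full effect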
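Purified YjeE (10 uM) with BODIPY Texas Red-labeled ADP probe (2 uM); compounds pin-transferred, 15 min at room temperature. Binding inhibition read as decreased fluorescence polarization; ADP titration as control.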
Bst PK mod = alters activity of Bacillus stearothermophilus pyruvate kinase; partly purified Bacillus stearothermophilus pyruvate kinase, luminescence ATP production; ribose 5-phosphate activator present at AC10; Potency, µM; 51,000 tested, 1.2% active; in the data active means potency below about 11 µM; inconclusive means mostly about 12 µM to 25 µM; inactive means weaker than that;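 the screen sought inhibitors and activators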;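 note: potency is the fitted concentration of half-maximal effect; scaled between full activation by ribose 5 phosphate and full inhibition by luteolin; about four in five hits inhibit and the cells do not say which; series up to 57 µM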
* marks the source's active call; other numbers are inactive results; i = inactive; . = not tested or not shown. Only part of the results is shown; rates above refer to the full screens.

item	SMILES	YjeE inh	Bst PK mod
1	COc1ccccc1N1CCN(CCCNC(=O)Nc2ccccc2C)CC1	i	>57
2	O=C(NCc1ccncc1)C(F)(F)C(F)(F)C(=O)NCc1ccncc1	i	.
3	CCc1nnc(NC(=O)C2CCCN(c3nc4ccccc4s3)C2)s1 (stereo not drawn)	i	>57
4	CC(=O)C1C(=O)C=C(c2ccco2)CC1c1ccccc1 (stereo not drawn)	i	>57
5	O=C(O)c1cccnc1SCC(=O)N1CCCCCC1	i	>57
6	Cn1c(=O)c(-c2cc(F)cc(F)c2)nc2cnc(Oc3ccccc3)nc21	i	.
7	O=C(Nc1cccc(Cl)c1)N(Cc1nc2ccccc2c(=O)[nH]1)C1CCCC1	i	>57
8	COc1ccc(-c2nn(-c3ccccc3)cc2C(=O)O)cc1	i	.
9	O=C(NCS(=O)(=O)c1ccccc1)c1ccccc1	i	.
10	CCSc1nc(N)c2c3c(sc2n1)CCC3	.	>26
11	Cc1ccc(C2c3c(-c4ccccc4O)n[nH]c3C(=O)N2Cc2ccncc2)cc1 (stereo not drawn)	i	>57
12	O=C(CSC1=NS(=O)(=O)c2ccccc21)Nc1ccccc1	i	.
13	CCn1c(SCC(=O)NCc2ccco2)nc2cccnc21	i	>57
14	CN(C)c1nc(OCCOC(=O)c2ccccc2)nc(N(C)C)n1	i	>57
15	COc1ccc2cc1Oc1ccc(cc1)C[C@@H]1c3c(cc(OC)c4c3Oc3cc5c(cc3O4)CCN[C@H]5C2)CCN1C	i	.
16	CC(Nc1ncnc2nc[nH]c12)c1ccccc1 (stereo not drawn)	i	.
17	O=c1[nH]c2c(s1)C(c1ccccc1)C1C3CCC(C3)C1S2 (stereo not drawn)	i	>57
18	CCN(CCCNC(=O)C1CCC(=O)N1Cc1ccc(C)cc1)c1cccc(C)c1 (stereo not drawn)	i	>57
19	O=C(c1cccc(F)c1)N1CCc2ccccc2C1	i	>57
20	C=CCNC(=O)c1cnc2n(c1=O)CCS2	i	.
21	O=C(CN1C(=O)c2cccc3cccc1c23)N1CCN(Cc2ccc3c(c2)OCO3)CC1	i	.
22	CCOC(=O)N1CCC(N2C(=O)c3ccccc3C2Nc2ccc3c(c2)OCCO3)CC1 (stereo not drawn)	i	.
23	COC(=O)c1ccccc1NC(=O)CN(C)S(=O)(=O)c1ccc(OC)cc1	i	>57
24	CCCCN(C(=O)NC(=O)Nc1cccc(C)c1C)S(C)(=O)=O	i	>57
25	CCCC(=O)Nc1cccc2c1CCCC2	i	>57
26	Cc1ccc(-c2ccc(=O)n(CC(=O)NCCCN3CCCCC3)n2)cc1	i	>57
27	Cc1onc(-c2ccccc2Cl)c1C(=O)N1CCCCC1C(=O)O (stereo not drawn)	i	.
28	Cc1ccc2c(C(=O)CN3CCSCC3)c(C)[nH]c2c1	i	.
29	CCN1CCN(C(=O)c2cc3sccc3n2CC(=O)c2ccccc2)CC1	i	>57
30	CCN(CC)CCCC(C)n1c(-c2ccccc2)nc2c(NCc3ccccc3)nc(C)nc21 (stereo not drawn)	i	.
31	O=C(c1noc2c1CCCC2)N1CCN(C(c2ccccc2)c2ccccc2)CC1	i	>57
32	O=C(COC(=O)c1cccs1)NCc1ccco1	i	>57
33	N#Cc1nc(Cc2cccc3ccccc23)oc1NCCN1CCCCC1	i	6.3*
34	CCN(CC(=O)Nc1ccc2c(c1)OCCO2)C(=O)c1cccc(S(=O)(=O)N2CCOCC2)c1	i	>57
35	O=C(CSc1nccc2ccccc12)N1CCN(c2ccccn2)CC1	i	.
36	CC1CC(c2ccccc2)n2nc(NC(=O)c3cccs3)nc2N1 (stereo not drawn)	i	>57
37	COc1cccc(C2CC(=O)Nc3cc(OC)c(OC)c(OC)c32)c1OC (stereo not drawn)	i	>57
38	CCOC(=O)c1nnn(-c2nonc2-n2cccc2)c1C	i	>57
39	CCOC(=O)N1CCC(=C2c3ccc(Cl)cc3CCc3cccnc32)CC1	i	>11
40	CC1(C)Cc2c(c(=S)nc(-c3ccccc3)n2CCOCCO)CO1	i	>57
41	CC(=O)N1CCN=C1SCc1ccccc1Cl	i	.
42	CSc1ccc(Cl)c(C(=O)NCc2ccco2)c1	i	.
43	Clc1ccc(C=NC23CN4CN(CN(C4)C2)C3)cc1	i	.
44	CCC(=O)n1nc(-c2cccnc2)nc1NCc1ccc(OC)cc1	i	>57
45	O=C(C1CCN(Cc2ccc(F)cc2)CC1)N(CCO)Cc1ccccc1	i	>57
46	Cc1ccc(-c2c(C#N)c(N)nc3c2CCCCCC3)o1	i	.
47	O=C(NC1CC1)C1CCN(c2ccc(S(=O)(=O)N3CCOCC3)cc2Cl)CC1	i	>57
48	COc1ccc(OCCn2c(NC(=O)c3ccco3)nc3ccccc32)cc1	i	.
49	Cc1ccc(S(=O)(=O)N2CCN(C(=O)c3cc(=O)[nH]c4ccccc34)CC2)c(C)c1	i	i
50	COc1ccc(NC(=O)CNCCC2=CCCCC2)cc1	i	>57
51	Cc1ccc(S(=O)(=O)N2CCN(S(=O)(=O)N3CCCCC3)CC2)cc1	i	>57
52	CCCCN(C(=O)NC(=O)Nc1ccccc1OC)S(C)(=O)=O	i	>57
53	COc1ccccc1Nc1nc(N)nc(CN(C)C2CCCCC2)n1	i	>57
54	CCNC(=O)COc1ccc(Br)cc1Cl	i	>57
55	O=C(c1ccc2c(=O)n(Cc3ccc4c(c3)OCO4)c(=S)[nH]c2c1)N1CCCCC1	i	>57
56	COCCn1c(SCC(=O)Nc2cc(C)cc(C)c2)nnc1C(C)C	i	>57
57	Cc1noc(NS(=O)(=O)c2ccc(NC(=O)CSc3nc4c(cc3C#N)CCC4)cc2)c1C	i	.
58	O=C(CCC(=O)N(CC(=O)NC1CCCCC1)Cc1ccco1)Nc1nccs1	i	>57
59	CCOC(=O)c1c(CNCCN(CC)CC)n(C)c2cc(Br)c(OC)cc12	.	>26
60	O=C(CCc1nc2ccccc2c(=O)[nH]1)OCC(=O)N1CCN(S(=O)(=O)c2ccccc2)CC1	i	>57

(list continues)
item	SMILES	YjeE inh	Bst PK mod
61	Cc1ccccc1C(=O)Nc1cccc(NC(=O)Cn2cnc3c(=O)n(C)c(=O)n(C)c32)c1	i	>57
62	Cc1ccnc(NC(=O)CCC(=O)N(CC(=O)NC2CCCCC2)CC2CCCO2)c1 (stereo not drawn)	i	>57
63	CN(CC(=O)NC1CCCCC1)S(=O)(=O)c1ccc(Br)s1	i	>57
64	COc1cccc(OCC(O)CO)c1 (stereo not drawn)	i	>57
65	O=C(O)/C(Cc1ccnc2ccccc12)=N\O	i	.
66	COc1ccc(-c2ccc(S(=O)(=O)N3CCOCC3)cc2)cc1	i	>57
67	CCNc1ncc2nc(-c3ccccc3)c(=O)n(Cc3cccs3)c2n1	i	.
68	CC1(C)CC(=O)C2(CC3=C(CC(C)(C)CC3=O)O2)C(=O)C1	i	.
69	Nc1c(C(=O)NC2CCCCC2)c2nc3ccccc3nc2n1/N=C/c1ccco1	i	>57
70	CC1(C)S[C@@H]2[C@H](NC(=O)C(N)c3ccccc3)C(=O)N2[C@H]1C(=O)O (stereo partly drawn)	i	.
71	O=C(c1ccco1)N1CCN(C(=O)c2cccn3c(=O)c4c5c(sc4nc23)CCCC5)CC1	i	>57
72	CCOC(=O)N1CCN(CC(=O)Nc2cc(OCC)ccc2OCC)CC1	i	>57
73	CCCCOC(=O)Nc1nnc(-c2ccccc2OC)s1	i	>57
74	c1ccc(Cc2nnc3sc(-c4ccco4)nn23)cc1	i	.
75	CC(C(=O)N1CCOCC1)(c1ccccc1)c1ccccc1	i	>57
76	CN(C)C(=O)c1ccc(-c2nccc(-n3ccnc3)n2)cc1	i	.
77	CCOC(=O)N1CCN(C(=O)c2cnn3c(C(F)F)cc(-c4ccc(C)cc4)nc23)CC1	i	>57
78	CCOc1ccccc1NC(=O)CCn1c(=O)oc2ccccc21	i	>57
79	O=C(CCCn1c(=O)[nH]c2ccsc2c1=O)N1CCN(c2ccccn2)CC1	i	>57
80	N#CCCN1CCN(C(=S)c2ccc(-c3cccc(Cl)c3)o2)CC1	i	.
81	COc1cc(=O)n2c(-c3ccccc3)csc2n1	.	>26
82	O=C(OCn1nnc2ccccc2c1=O)C1CCCCC1	i	>57
83	CCc1ccccc1N(CC(=O)NCCSCc1ccco1)S(C)(=O)=O	i	.
84	Cc1cc2c(cc1C)NC(c1c(C)n(C)n(-c3ccccc3)c1=O)C1=C(CC(C)(C)CC1=O)N2 (stereo not drawn)	i	>57
85	N#Cc1cccc2cnccc12	i	>57
86	COc1cccc(-c2nn3c(-c4cccc(C)c4)nnc3s2)c1	i	.
87	COC(=O)\C(C(C)=O)=C(/C=C/C=C/N(C)C)N(C)C	i	>57
88	CN(C)c1ncc2nc(-c3ccc(F)cc3)c(=O)n(-c3ccccc3)c2n1	i	.
89	Cc1ccc(Nc2nc(CSc3nnc(-c4cccs4)o3)cs2)cc1	i	.
90	Cc1ccc2c(CC(=O)NCc3ccco3)coc2c1C	i	>57
91	CC(=O)c1cccc(NC(=O)Nc2cnn(Cc3ccc(F)cc3)c2)c1	i	>57
92	Cc1cc(-c2ccccc2)c(C#N)c(N)n1	i	.
93	Cn1c(=O)c2c(SCC(=O)NCc3ccco3)nc(CC(C)(C)C)nc2n(C)c1=O	i	.
94	COc1ccc(CNC(=O)c2cc(-c3ccc(OC)c(OC)c3)on2)cc1	i	>57
95	COc1ccc(OC)c(C(c2nnnn2Cc2ccccc2)N2CCN(C)CC2)c1 (stereo not drawn)	i	>57
96	O=C(Oc1ccccc1)N1CCC2(CCCN(c3ccccc3)C2)CC1	i	.
97	Cn1c(SCC(=O)NCc2ccco2)nnc1-c1cccs1	i	>57
98	COC(=O)c1ccc(/C=N/n2cnnc2)cc1	i	.
99	CCCC(=O)Nc1ccc2oc(-c3cccnc3)nc2c1	i	.
100	O=C(c1ccco1)N1CCC(c2ccccc2)C1 (stereo not drawn)	i	.
101	O=c1n(Cc2ccc(Cl)cc2)c2sc3c(c2c2ncnn12)CCCC3	i	>11
102	O=C(NCc1ccncc1)c1ccc(Br)cc1	i	.
103	O=S(=O)(c1ccc2nc(Cc3cccc(C(F)(F)F)c3)[nH]c2c1)N1CCOCC1	i	>57
104	Cc1cc(C)n(-c2ncnc3sc4c(c23)CC(C)CC4)n1 (stereo not drawn)	i	.
105	NC(Cc1cccc2nsnc12)C(=O)O (stereo not drawn)	i	>57
106	O=C(Nc1cccc(C(F)(F)F)c1)c1ccco1	i	i
107	O=C(C1CCCN(S(=O)(=O)Cc2ccccc2)C1)N1CCCCC1 (stereo not drawn)	i	>57
108	O=C(Cn1cnc2ccccc2c1=O)OCCCCN1C(=O)c2ccccc2C1=O	i	>57
109	Cn1c2ccccc2c2ncn(CCN3CCOCC3)c(=O)c21	i	>57
110	O=C(NCc1n[nH]c(=S)n1-c1ccccc1)c1ccc(S(=O)(=O)N2CCOCC2)cc1	i	>57
111	Cc1cc(C(=O)N2CCN(C/C=C/c3ccccc3)CC2)no1	i	>57
112	COc1ccc(C(=O)c2ccc(N3CCOCC3)cc2)c(OC)c1	.	>26
113	CC(CNCc1ccc2c(c1)OCO2)NCc1ccc2c(c1)OCO2 (stereo not drawn)	i	.
114	COc1ccc(-c2nnc(SCC(=O)NCc3ccco3)n2C)cc1	i	>57
115	O=C(C[C@@H](c1ccccc1)N1CCCCC1)c1ccccc1	i	.
116	c1ccc2c(c1)nc(NCC1CCCO1)c1nnnn12 (stereo not drawn)	i	.
117	COc1ccc(C(=O)CSc2nnc(CNc3ccc(C)cc3C)o2)cc1	i	>57
118	N#Cc1c(NC(=O)CSc2nc(-c3ccco3)cc(C(F)(F)F)n2)sc2c1CCCC2	i	>57
119	COC(=O)[C@@]1(Cc2ccc(F)cc2)[C@H]2c3cc(C(=O)N4CCCC4)n(CCCNc4ncc(C(F)(F)F)cc4Cl)c3C[C@H]2CN1C(=O)c1ccccc1	i	.
120	Cc1nnc(C)n1/N=C/c1cc(Br)cc(Br)c1O	.	>26

Going on with the list.
item	SMILES	YjeE inh	Bst PK mod
121	CS(=O)(=O)Nc1cccc(-c2nc(Nc3ccc(F)cc3)c3ccccc3n2)c1	i	.
122	CCOC(=O)C1C(=O)C=C(C)C(C(=O)OCC)C1c1ccc(OC)cc1 (stereo not drawn)	i	>57
123	COC(=O)c1oc2ccc(OC)cc2c1N	i	.
124	COc1ccc(OC)c2sc(NC(=O)C(C)C)nc12	i	.
125	O=c1[nH]c2cc(Cl)c(Cl)cc2[nH]c1=O	i	.
126	COC(=O)CCNc1ccc2c(c1)OCCO2	i	>57
127	CC(=O)c1ccc(OCCCC(=O)n2nnc3ccccc32)cc1	i	>57
128	NC(=O)C1(N2CCCCC2)CCN(Cc2nc3ccccc3c(=O)[nH]2)CC1	i	>57
129	CC1Cc2ccccc2N1S(=O)(=O)c1cccc2nsnc12 (stereo not drawn)	i	.
130	COc1cccc(Cn2c(=O)c(-c3cccc(Cl)c3)nc3cncnc32)c1	i	.

Compounds from the list above containing bromine:
item	SMILES	YjeE inh	Bst PK mod
54	CCNC(=O)COc1ccc(Br)cc1Cl	i	>57
59	CCOC(=O)c1c(CNCCN(CC)CC)n(C)c2cc(Br)c(OC)cc12	.	>26
63	CN(CC(=O)NC1CCCCC1)S(=O)(=O)c1ccc(Br)s1	i	>57
102	O=C(NCc1ccncc1)c1ccc(Br)cc1	i	.
120	Cc1nnc(C)n1/N=C/c1cc(Br)cc(Br)c1O	.	>26
